Vaccinia mCherry – inhibitors of vaccinia virus infection (mCherry reporter signal). Vaccinia virus mCherry reporter infection, fluorescence; about a quarter of the inactives have no number. Potency, µM (highest dose often 36.5 µM), for inactives: top-dose activity change, negative = inhibition, usual class: inhibitors. 310,000 compounds, 0.63% hits. AID 720579; active = well fitted inhibition curve with a large enough effect; inconclusive = small, poorly fitted or top-dose-only effect; inactive = no such curve, though single readings can be large or run the other way; tested in A549 cells; also: nearly all actives have a fitted effect of over 35% in size; inactives centre near -10
Vaccinia Venus – inhibitors of vaccinia virus (Venus reporter) | Vaccinia virus Venus reporter expression, fluorescence | 330,000 compounds, 0.46% hits | Potency, µM (series often up to 36.5 µM), without a hit: top-dose activity change, negative = inhibition, hits mostly inhibitors; active means well fitted inhibition curve with a large enough effect; inconclusive means small, poorly fitted or top-dose-only effect; inactive means no such curve, though single readings can be large or run the other way; tested in A549 cells; also: nearly all actives have a fitted effect of over 30% in size; inactives centre near -10
Numbers without * were called inactive; i = inactive; ? = inconclusive; nt = no result given; & = joins results of further samples; [ ] = dose if it differs, or a comment. % is scaled to controls: 0 for no effect and ±100 for the full control effect; potency is read from the fitted curve at half-maximal effect.

Second line of a record – Vaccinia mCherry	Vaccinia Venus
> O=C(COC(=O)c1ccccc1)Nc1ccccc1Sc1ccccc1
  -17%	-4%
> Cc1ccccc1N1CC(C(=O)Nc2ccc(Br)cc2)CC1=O (configuration not stated)
  -8%	-8%
> CCOc1cc(NC(=O)c2ccccn2)c(OCC)cc1NC(=O)c1ccc(OC)cc1
  -18%	13%
> CNC(=O)c1ccccc1Sc1ccccc1C#N
  -1%	-12%
> COC(=O)c1ccc(OC(=O)CCN2C(=O)C3CCCCC3C2=O)cc1 (configuration not stated)
  -6%	-9%
> CCCCOC(=O)c1ccc(O)cc1
  i	-12%
> COc1ccccc1CNc1nc(-c2ccc(N(C)C)cc2)nc2ccccc12
  ?	?
> CCCCn1c(SCC(=O)NC2CCS(=O)(=O)C2)nc2cc(S(N)(=O)=O)ccc21 (configuration not stated)
  -9%	-6%
> COc1ccc(F)cc1S(=O)(=O)NC1CCCC1
  0%	1%
> O=C(Cc1cccc(NC(=O)C2CCCN(C(=O)C3CCCCC3)C2)c1)Nc1ccc(C(=O)N2CCOCC2)cc1 (configuration not stated)
  i	-11%
> C/C(=N\NC(=O)c1sccc1-n1cccc1)c1cccs1
  -14%	-13%
> CCOC(=O)C1CCCN(C(=O)c2ccc(SC(F)(F)F)cc2)CC1 (configuration not stated)
  i	16%
> COc1cc(NC(=O)c2ccc(NS(=O)(=O)c3c(C)noc3C)cc2)cc(OC)c1
  -20%	-10%
> Cc1ccc(C)c(C(=O)Nc2nc3ccccc3[nH]2)c1
  14%	2%
> O=C(Cc1cccc2ccccc12)N/N=C/c1ccc(F)cc1
  i	-11%
> CCOc1ccccc1NC(=O)c1cc(S(=O)(=O)N2CCC3(CC2)OCCO3)ccc1F
  -10%	-3%
> CCc1nc2ccccc2n1CC(=O)OCC(=O)N(CC(C)C)c1c(N)n(Cc2ccccc2)c(=O)[nH]c1=O
  -13%	-12%
> O=c1[nH]c(SCc2ccccc2Cl)nc2[nH]ncc12
  i	-3%
> CC1(C)C(C(=O)O)N2C(=O)C(NC(=O)Cc3ccccc3)C2S1=O (configuration not stated)
  0%	-13%
> O=C(NCC1CCCO1)c1cc(Br)c(Br)s1 (configuration not stated)
  -9%	-13%
> O=C(Oc1cccc(C(=S)N2CCOCC2)c1)c1ccccc1
  6%	2%
> O=C(c1ccncc1)N(c1ccc(N2CCOCC2)cc1)C(c1ccccc1)c1nc2ccccc2[nH]1 (configuration not stated)
  50%[activator]	3%
> COc1ccc(C(=O)C[n+]2ccccc2/C=N/O)cc1
  i	-12%
> Cc1ccc(Cn2nc(C)c(NC(=O)C3CC3)c2C)cc1
  -1%	7%
> O=C1c2ccccc2C(=O)N1CCc1nc2ccccc2c(=O)n1Cc1ccco1
  nt	-8%
> CCOc1ccc2[nH]c(=O)c(CN(CCN3CCCC3)C(=S)Nc3ccccc3OC)cc2c1
  -17%	-3%
> COc1ccc(N(CC(=O)NN=C2CCCCCCC2)S(=O)(=O)c2ccccc2)cc1Cl
  nt	-21%
> COc1cccc(C(=O)NCCCNC(=O)c2ccco2)c1
  -5%	-1%
> N#Cc1ccc(C=NN2CCCCCC2)cc1
  -14%	-6%
> COC(=O)c1sc(N)c(C(=O)OC)c1COC(=O)[C@@H](NS(=O)(=O)c1cccc(Cl)c1)C(C)C
  -15%	-28%
> Cc1[nH]n(-c2nc(-c3cccc([N+](=O)[O-])c3)cs2)c(=O)c1C
  -1%	-6%
> CC(=O)N(C)c1cccc(-c2ccc3nnc(C)n3n2)c1
  i	-11%
> O=C1CC(SC(=S)C2CCCC2=O)C(=O)N1 (configuration not stated)
  -13%	-13%
> Cn1c(=O)oc2cc(S(=O)(=O)Nc3ccc(Cl)cc3F)ccc21
  -9%	3%
> Cc1ccc(-n2ncc3c(Nc4ccccc4C)ncnc32)cc1
  -7%	-10%
> C(=Nc1ccc(N2CCOCC2)cc1)c1c[nH]c2ccccc12
  1%	6%
> CCN(CC)c1ccc(/C=c2\sc3nnc(-c4ccccc4Cl)n3c2=O)cc1
  i	-1%
> COc1ccc2sc(-c3ccccc3OC)c(-c3ccc(O)cc3)c2c1
  -26%	1%
> CCOC(=O)C1CCCN(S(=O)(=O)c2ccc(C)cc2)C1 (configuration not stated)
  -17%	-11%
> CC(=O)C1=C(c2ccccc2)NC(=S)NC1c1ccc(O)c(O)c1 (configuration not stated)
  -11%	-11%
> COc1ccccc1/C=C/c1nc2ccccc2[nH]1
  -4%	-29%
> Cc1ccc(Oc2ccc(OCC(=O)NC(CC(C)C)C(=O)O)cc2)cc1 (configuration not stated)
  -3%	-1%
> Cc1ccc(N(Cc2cccs2)C(=O)Nc2cccc(Cl)c2)cc1
  -6%	-3%
> Cc1cc(CCCCCCCCc2cc(C)cc(=O)o2)oc(=O)c1
  -19%	-17%
> Cc1ccc(-n2nnnc2SCC(=O)Nc2cccc(NC(=O)c3ccco3)c2)cc1C
  -30%	-25%

Full records, looked up by structure. Order of screens: Vaccinia mCherry | Vaccinia Venus
Cc1cc(CCCCCCCCc2cc(C)cc(=O)o2)oc(=O)c1 across the screens: -19% | -17%
O=C(Oc1cccc(C(=S)N2CCOCC2)c1)c1ccccc1 across the screens: 6% | 2%
C/C(=N\NC(=O)c1sccc1-n1cccc1)c1cccs1 across the screens: -14% | -13%
CCOC(=O)C1CCCN(S(=O)(=O)c2ccc(C)cc2)C1 (configuration not stated) across the screens: -17% | -11%
C(=Nc1ccc(N2CCOCC2)cc1)c1c[nH]c2ccccc12 across the screens: 1% | 6%

Remaining list, next part
Second line of a record – Vaccinia mCherry	Vaccinia Venus
> COc1ccc(-n2c(C)cc(=O)c3c2CC(C)(C)CC3=O)cc1
  -8%	-3%
> O=C(COC(=O)c1ccc([N+](=O)[O-])o1)Nc1ccc2c(c1)OC(F)(F)O2
  -12%	-4%
> COc1ccc(NC(=O)NC(C)c2c(-n3cccc3)sc(C)c2C)cc1OC (configuration not stated)
  -24%	-24%
> CCCNC(=O)N1CCN(Cc2ccco2)CC1
  -9%	-12%
> CCNC(=O)C[C@@H]1CC[C@@H]2NC[C@@H](O)COC[C@H]2O1
  -9%	-12%
> CC(C)CCNc1nc(Nc2ccccc2)c2cnn(C)c2n1
  i[7.34 µM]	-14%[7.34 µM]
> c1cncc(CNc2nc(-c3ccoc3)nc3ccccc23)c1
  -7%	13%
> O=C(Nc1ccc(S(=O)(=O)Nc2ccccn2)cc1)c1cccc(Cl)c1
  19%	4%
> Cc1cc(C)c([C@@H]2C[C@H]3CN(C4CCCC4)C(=O)[C@]34CCCN24)c(-n2cccn2)c1
  -5%	-5%
> Cc1ccsc1C1Nc2ccccc2C(=O)N1O (configuration not stated)
  i	-7%
> CC(=O)c1cccc(NC(=O)C2Cc3c(-c4cccc(C(C)=O)c4)ccnc3O2)c1 (configuration not stated)
  2%	-3%
> Cc1cc(-c2csc(NC(=O)c3ccc(C#N)cc3)n2)c(C)n1Cc1ccco1
  -12%	-5%
> CCN(CC(=O)N1CCC(C(N)=O)CC1)S(=O)(=O)c1cc(Cl)ccc1Cl
  i	-6%
> Cn1c(C(=O)N2CCN(C(=O)c3ccco3)CC2)cc2c(=O)n(C)c3ccccc3c21
  0%	-5%
> CCOc1ccc(-c2nnn(CC(=O)NCc3ccccc3)n2)cc1
  -3%	-14%
> COc1ccc(-c2nn(C)c3sc(C(=O)Nc4cccc(F)c4)cc23)cc1OC
  -17%	-9%
> Cc1ccc(NC(=S)N(CCCN2CCCC(C)C2)Cc2ccco2)cc1C (configuration not stated)
  -12%	-30%
> COc1cccc(-n2c(-c3ccccc3F)nc3c(cnn3-c3ccc(C)cc3)c2=O)c1
  7%	-3%
> CC1CCCN(C(=O)NC(=O)c2ccc(Cl)cc2)C1 (configuration not stated)
  i	-6%
> CCCN1CCN(C(=O)c2ccc(Sc3ccc(C)cc3)c(NC(C)=O)c2)CC1
  i	-16%
> CC(C)N(Cc1ccccc1)C(=S)Nc1ccc(F)cc1
  -8%	-14%
> COC(=O)CSc1ccc2nnc(CCNS(=O)(=O)c3ccc(C)cc3)n2n1
  -10%	-5%&-18%
> Cc1sc2ncnc(SCC(=O)NNC(=O)c3ccco3)c2c1C
  i	-10%
> O=C(/C=C/c1ccc(-c2cccc([N+](=O)[O-])c2)o1)N1CCOCC1
  -10%	0%
> COc1ccc(Cl)c(-c2cc(C(=O)NC(C)C)[nH]n2)c1
  i	-4%
> CCOC(=O)C1CCCN(S(=O)(=O)c2cc(OCC(N)=O)c(C)cc2Cl)C1 (configuration not stated)
  -1%	-25%
> COc1ccccc1Nc1nc(N)nc(CCl)n1
  -6%[7.34 µM]	-2%[7.34 µM]
> COc1cc(C(C)=O)ccc1COc1ccc(C(=O)OCC(=O)NC(C)(C)C)cc1OC
  i	-20%
> Cn1nnnc1SCc1nnc(-c2ccc(Cl)cc2)o1
  -16%	2%
> O=C1CCCCCN1CSc1nc2ccccc2s1
  nt	-23%
> O=C(OCc1cnc(Cl)s1)c1cccs1
  i	-6%
> CCOC(=O)c1sc2nc(CN3CCN(c4cccc(C(F)(F)F)c4)CC3)[nH]c(=O)c2c1C
  -7%	2%
> Cn1nc(C(=O)N2CCN(c3ccc([N+](=O)[O-])cc3)CC2)c2c1-c1ccccc1S(=O)(=O)C2
  5%[7.34 µM]	20%[7.34 µM]
> CN(C)c1ccc(CNC(=O)c2ccc(Cn3c(=O)c4cccn4c4cccnc43)cc2)cc1
  -24%	-22%
> COC(=O)C1=C(c2ccc(-c3ccccc3)c(F)c2)C[C@@H]2CC[C@H]1N2C(=O)N1CCCCC1
  ?	?
> CC1CCCN(Cc2nc3c(c(=O)n(C)c(=O)n3C)n2Cc2ccc(Cl)cc2Cl)C1 (configuration not stated)
  -8%	-10%
> Cc1nnc2c3ccccc3ccn12
  -3%	-1%
> COc1ccc(CCNC(=O)CSc2nnc3ccc(-c4cccnc4)nn23)cc1
  -17%	-10%
> CN1N=C(C(F)(F)F)CC1=O
  0%	-2%
> CCN(CC)S(=O)(=O)c1ccc2[nH]c(=O)cc(C(=O)Nc3ccc(C)cc3)c2c1
  -14%	-11%
> CCc1ccc2oc(C(=O)Nc3nc(-c4ccccc4)ns3)c(C)c2c1
  6%	-5%
> COc1cc2c(NC3CCN(C)CC3)nc(N3CCCN(C)CC3)nc2cc1OCCN(C)CCN(C)C
  -8%	-18%
> CC(C)(C)C(C(=O)Oc1ccccc1)c1ccccc1 (configuration not stated)
  i	-4%
> CC(C)c1ccc(S(=O)(=O)N2CCC(n3c(C(F)(F)F)nc4cccnc43)CC2)cc1
  -22%	-9%
> CCOc1ccc(CNC(=O)CCc2cn(Cc3ccccc3)c3ccccc23)cc1
  -10%	-23%
> O=C(Cc1ccc(Cl)cc1)NCC(=O)N1CCN(c2ccccc2)CC1
  -5%	-18%
> O=c1oc(-c2ccc(O)c(O)c2)cc2cc(O)cc(O)c12
  ?	-17%
> O=C(CC1C(=O)NCCN1Cc1ccccc1C(F)(F)F)NCCn1cccn1 (configuration not stated)
  i	-7%
> COc1ccc(NC(=O)C(=O)NCCc2sc(-c3ccc(Cl)cc3)nc2C)cc1
  23%	3%
> Cc1[nH]c2ccccc2c1/C=N/Nc1ccc([N+](=O)[O-])cc1S(=O)(=O)Nc1ccc(Cl)cc1
  -10%	0%
> Cc1ccc(NC(=O)CN(C)C(=O)c2cc(-c3ccco3)nc3ccccc23)cc1
  -14%	-16%
> O=C(Nc1ccccc1)N(Cc1cccc(Cl)c1)c1ccccn1
  -8%	-7%
> C/C(=N\NC(=O)c1nnn(-c2nonc2N)c1-c1ccc2c(c1)OCO2)c1ccc(C)cc1
  -3%	20%
> Cn1c(=O)[nH]c2cc(-c3noc(-c4ccc(Br)cc4)n3)ccc21
  -9%	-13%
> CCN(CC(=O)Nc1ccc(OC)c(OC)c1)S(=O)(=O)c1ccc(C)cc1
  nt	-12%
> Cc1[nH]c(C)c(S(=O)(=O)NCc2ccc(N(C)C)cc2)c1C(=O)N1CCCC1
  -6%	-7%
> COc1ccc(CNC(=O)COC(=O)/C=C/c2ccc(Cl)cc2)cc1
  1%	-4%
> COc1cc(=O)oc(-c2ccccc2)c1C(C)=O
  -13%	12%
> O=C(NC1CCCC1)C(c1ccc(N2CCOCC2)cc1)N(Cc1ccccc1)C(=O)c1ccco1 (configuration not stated)
  nt	-12%
> O=C(Nc1ccc2ccccc2c1)c1ccc(Cl)cc1Cl
  i	-10%
> Cn1cccc1/C=N/NC(=O)Cc1cccc2ccccc12
  -9%	-11%
> Cc1ccc(CNC(=O)Cn2cnc3c(OCc4ccccc4)ncnc32)o1
  i	-19%
> O=C(CN1C(=O)c2ccccc2S1(=O)=O)c1cccc(Br)c1
  i	-10%

Given with each value named: 4 of the compounds above
> O=C(NC1CCCC1)C(c1ccc(N2CCOCC2)cc1)N(Cc1ccccc1)C(=O)c1ccco1 (configuration not stated)
  Vaccinia mCherry: nt	Vaccinia Venus: -12%

> COc1ccc(NC(=O)C(=O)NCCc2sc(-c3ccc(Cl)cc3)nc2C)cc1
  Vaccinia mCherry: 23%	Vaccinia Venus: 3%

> COc1cc(=O)oc(-c2ccccc2)c1C(C)=O
  Vaccinia mCherry: -13%	Vaccinia Venus: 12%

> Cn1cccc1/C=N/NC(=O)Cc1cccc2ccccc12
  Vaccinia mCherry: -9%	Vaccinia Venus: -11%

Screens deposited in PubChem BioAssay by National Center for Advancing Translational Sciences (NCATS).
